Screens as filed in PubChem BioAssay.
T cruzi repl: inhibitors of intracellular T. cruzi growth, primary screen, luminescence, NIH3T3 host cells | T. cruzi beta-gal in NIH3T3, 90 h | AID 1885, 2009 | 300,000 tested, 1.4% active | inhibition, % (concentration not given with the values);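 active = mean inhibition across valid replicates above about 55%, limit read from the data; inconclusive = mean below that limit but half or more replicates reach it; inactive = mean below it, under half of replicates reach it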;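 also: signal also drops with host cell toxicity which is not excluded here; 0% = plate median of DMSO wells and 100% = zero luminescence signal; higher percent means less beta-gal luminescence so fewer parasites; stock transfer was 50 nL into about 50 µL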
Calb FLC: C. albicans growth inhibition with fluconazole, primary screen, CaCi-2 strain, Alamar Blue fluorescence; AID 1979, 2009; growth inhibition, % (concentration not given with the values); C. albicans CaCi-2 (fluconazole-resistant clinical isolate) + fluconazole, 48 h; 300,000 tested, 0.57% active;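 active = most replicates above 75%; inconclusive = exactly half above 75%; inactive = most below 75%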;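 also: all wells also contain fluconazole at 8 µg/ml as a sub-toxic cotreatment; 0% = median of DMSO wells and 100% = median of geldanamycin control wells; wells of about 8 µL received 7.5 nL stock; the first replicate is given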
AF4-AF9 inh: inhibitors of AF4 peptide binding to AF9, primary screen, biochemical, AlphaScreen, biotin-AF4 peptide, FLAG-AF9, single point; Protein AF-9 (Homo sapiens), P42568; inhibition, % at 10 µM; 350,000 tested, 0.47% active;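 active = every replicate reaching a set inhibition limit, whatever the replicate mean, cut at about 25% in these data; inconclusive = mean inhibition reaches that limit but some replicates miss it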;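 also: 0% = plate neutral control median and 100% = total signal loss; the record names both 10 and 1 µM as test concentration; the first replicate is given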
Target sequence (P42568 whole entry, looked up): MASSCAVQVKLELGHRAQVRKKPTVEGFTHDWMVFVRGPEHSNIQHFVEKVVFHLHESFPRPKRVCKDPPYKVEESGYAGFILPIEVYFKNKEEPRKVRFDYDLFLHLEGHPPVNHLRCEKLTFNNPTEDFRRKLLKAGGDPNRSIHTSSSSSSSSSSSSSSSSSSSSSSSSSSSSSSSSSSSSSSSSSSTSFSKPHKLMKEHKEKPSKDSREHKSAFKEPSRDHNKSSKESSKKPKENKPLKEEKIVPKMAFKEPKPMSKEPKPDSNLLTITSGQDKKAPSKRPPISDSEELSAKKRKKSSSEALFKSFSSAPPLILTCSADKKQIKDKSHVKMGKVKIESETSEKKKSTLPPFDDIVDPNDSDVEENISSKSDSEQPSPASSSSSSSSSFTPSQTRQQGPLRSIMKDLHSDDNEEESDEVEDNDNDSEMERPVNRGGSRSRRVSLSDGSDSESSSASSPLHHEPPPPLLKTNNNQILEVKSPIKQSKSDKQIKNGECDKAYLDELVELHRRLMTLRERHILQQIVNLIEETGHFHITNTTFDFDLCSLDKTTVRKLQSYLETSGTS
RanGTP-Impb inh: inhibitors of RanGTP-importin-beta interaction, primary screen, biochemical, FRET, CFP-Ran, YFP-importin-beta, homogeneous. cell-free CFP-Ran/YFP-importin-beta FRET ratio. inhibition, % (no concentration beside the values). AID 2216, 2009. Ran GTPase (GTP-bound) - importin-beta complex. 300,000 tested, 1.1% active;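 active = most replicates above 15%; inconclusive = exactly half above 15%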;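 also: 0% = DMSO wells and 100% = Ran loaded with GDP instead of GTP; wells of about 40 µL received 100 nL stock; the first replicate is given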
Beta apoptosis: inhibitors of cytokine-induced beta cell apoptosis, primary screen, luminescence; INS-1E cytokine-induced death, ATP luminescence, 48 h; percent of positive-control rescue, neutral wells zero; protection from apoptosis, % (no concentration beside the values); 300,000 tested, 0.8% active; AID 435005, 2010;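 active = all replicates at 75% or more, or half of them and the mean; inconclusive = half reach 75% but not the mean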;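 also: 0% = cytokine-treated negative control wells and 100% = positive control rescue; higher means more ATP so stronger rescue from cytokine killing; wells of about 40 µL received 100 nL stock; the first replicate is given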
rRNA inh HTS: reduced GFP signal of wild-type E. coli, primary screen, bacterial rRNA inhibitor project, GFP/RFP fluorescence, OD600, single point; E. coli WT GFP vs humanized-ribosome RFP mutants, 24 h; hits give low values; DMSO median 0, no signal -100; GFP signal change (wild-type ribosome), % (no concentration beside the values); 350,000 tested, 1.6% active; AID 720706, 2013;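 active = significant combined selectivity score with lowered wild-type GFP, culture density cut under 30%, mutant RFP and density less affected; inactive = any of these conditions unmet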; also: one replicate is shown; some compounds called inactive have numbers as strong as hits
Bfl-1 A1 inh: caspase 3/7 activation in MEF A1-2A-BIM cells, primary screen, A1 inhibitor project, cell-based, luminescence, HTS; Caspase-Glo 3/7 luminescence, 3 h; percent of clofoctol response, vehicle zero; caspase activation, % (concentration not given with the values); 330,000 tested, 0.066% active;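 active = over half of replicate activation scores above 10%, or exactly half above 10 with the replicate mean above 10; inconclusive = replicate mean below 10 yet half the replicates above 10; inactive = over half of replicates below 10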;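 also: wells of about 30 µL received 50 nL stock; many hits fall short of the cut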
Vif A3G: inhibitors of Vif binding to APOBEC3G peptide, primary screen, biochemical, TR-FRET, GST-Vif 1-94, biotin-A3G peptide, dose response retest (AID 1117319); one-dose inhibition, %; IC50 in µM for titrated hits; Virion infectivity factor (Human immunodeficiency virus type 1 group M subtype B (isolate …; 260,000 tested, 0.57% active; TR-FRET GST-Vif / biotin-A3G peptide binding; higher % means a stronger effect; test concentration not given here; strong numbers were not always called active;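 active = above the screen mean plus three standard deviations and confirmed in dose response; inconclusive = results disagree or hit not tested in dose response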;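 also: Vif residues 1-94 fused to GST binding biotinylated APOBEC3G peptide 110-148; 0% = full assay without inhibitor and 100% = GST in place of GST-Vif; retest series ran down from 100 µM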
rRNA inh HTS OD600: further read-out of rRNA inh HTS, marked with its call; OD600 change, %; measured here: OD600 growth;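 optical density of the mix in the first replicate; 0 = DMSO median and -100 = no signal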
rRNA inh HTS RFP: also measured in rRNA inh HTS; calls as there; RFP signal change, %; measured here: RFP humanized mutant strains;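 first replicate; 0 = DMSO median and -100 = no signal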
The depositor's hits bear a star; ? = inconclusive; . = no result given; & = joins results of further samples.

SMILES | T cruzi repl | Calb FLC | AF4-AF9 inh | RanGTP-Impb inh | Beta apoptosis | rRNA inh HTS | rRNA inh HTS OD600 | rRNA inh HTS RFP | Bfl-1 A1 inh | Vif A3G
O=C(NCCc1c[nH]c2ccccc12)C(=O)NCC1OCCN1S(=O)(=O)c1ccccc1 (stereo unspecified) | -4 | 0 | 2.9 | 0.8 | -3 | 5 | -3 | -1.6 | -0.6 | .
COc1ccc(C2CC3(CC(C)(C)NC(=S)N3)Oc3cc(O)cc(C)c32)cc1OC (stereo unspecified) | 11 | -3 | 0.9 | 3.7 | 17 | -14 | -17 | -3.4 | -0.2 | 4%
O=C(O)CSc1nnc(CNc2ccc(Cl)cc2)n1Cc1ccccc1 | -1 | -1 | . | 6.7 | -5 | . | . | . | -1.3 | 0%
O=C(CCNC(=O)C1CCN(S(=O)(=O)c2ccc(F)cc2)CC1)NCc1ccccc1 | -13 | -6 | -2.2 | -0.3 | -1 | 16 | 8 | -0.7 | -2.0 | -5%
COc1ccc(C2C(C(C)=O)=C(O)C(=O)N2CCCn2ccnc2)cc1OC (stereo unspecified) | 7 | -5 | . | 2.0 | -6 | . | . | . | -0.1 | -5%
O=C(c1ccc2nc(Cc3ccccc3F)oc2c1)N1CC[C@H](O)C1 | -12 | -5 | -0.1 | -1.6 | -2 | -2 | 5 | -3.0 | 0.3 | .
CCOc1ccc2oc(C(=O)N(CCOC)c3c(N)n(CC(C)C)c(=O)[nH]c3=O)c(C)c2c1 | . | . | 0.2 | . | -4 | 1 | 2 | -1.3 | 0.0 | 17%
CCC(=O)Nc1ccc(N2CCN(C(=O)c3ccco3)CC2)c(Cl)c1 | -1 | -4 | 0.0 | 0.2 | . | -3 | -3 | -0.2 | . | .
Cc1ccccc1OCC(=O)Nc1ccc(S(=O)(=O)Nc2ccccn2)cc1 | -21 | -21 | . | -1.0 | -7 | . | . | . | -1.2 | .
Cc1cc(C)n2nc(SCc3nnc(SCc4ccccc4Cl)s3)nc2n1 | -6 | -21 | . | -0.5 | . | . | . | . | -0.5 | 0%
CS(=O)(=O)N(CC(=O)N1CCN(Cc2ccc3c(c2)OCO3)CC1)Cc1ccc(Cl)cc1 | 2 | -40 | . | 2.5 | 13 | . | . | . | 0.1 | -2%&-3%
COc1ccc(-c2c(N)n[nH]c2C)cc1OC | 2 | 1 | 7.1 | 4.8 | -5 | -2 | 2 | -0.7 | 0.7 | 15%
Cc1cc(N2CCN(C(=O)c3ccco3)CC2)n2ncnc2n1 | -3 | 2 | . | -3.1 | -1 | . | . | . | 0.5 | 8%
Cc1csc(NC(=O)c2cc3c(s2)CCC3)n1 | 4 | -27 | . | ? | 8 | . | . | . | -8.8 | 7%
O=C(/C=C/c1cn(-c2ccccc2)nc1-c1ccc2c(c1)OCCO2)NCCO | 12 | 22 | 1.2 | -1.1 | -4 | 7 | 7 | 3.2 | 0.8 | 12%
COc1cc2nc(C3CCC3)n(NC(=O)COc3ccccc3)c(=O)c2cc1OC | 2 | -14 | . | -2.6 | -4 | . | . | . | 0.5 | -21%
O=C(COC(=O)c1ccc(F)c(S(=O)(=O)N2CCOCC2)c1)NC1CCCCC1 | . | . | -12 | . | 0 | 2 | 2 | -0.7 | -0.7 | 2%
COc1ccc(CC(=O)N/N=C\c2cc(Br)c(O)c(Br)c2)cc1 | -5 | -4 | -2.5 | -0.3 | 1 | -19 | -10 | -1.0 | 0.5 | .
Cc1[nH]c(=O)nc(SCc2cccc(Cl)c2)c1C#N | 1 | 10 | -0.5 | 4.7 | -1 | -4 | -11 | 2.3 | 0.8 | .
CCNC(=S)N/N=C/c1cccs1 | -6 | -8 | . | ? | 1 | . | . | . | 1.9 | 8%
Cc1ccc(Nc2cc(=O)n(C3CCCCC3)c(=O)[nH]2)cc1C | -4 | 8 | . | 7.7 | 4 | . | . | . | -0.1 | -1%
O=C1C2CCCCC2C(=O)N1c1nccs1 (stereo unspecified) | -10 | 2 | -2.7 | -0.1 | 1 | 15 | -1 | 4.0 | 0.8 | 2%
O=c1cnnc(N/N=C/c2c[nH]c3ccccc23)[nH]1 | -17 | -2 | 0.9 | -1.8 | -2 | 7 | 12 | -0.4 | -0.6 | -2%
O=C(CC1OC(=O)c2ccccc21)c1ccco1 (stereo unspecified) | -22 | -2 | . | 2.5 | -11 | . | . | . | 0.1 | -4%
O=C(Nc1nnc(C2CCCCC2)s1)c1ccco1 | -17 | -13 | . | -5.0 | 2 | . | . | . | -0.9 | 1%
OCCNc1cnc2ccccc2n1 | 1 | -8 | 1.1 | 5.9 | -3 | 4 | 7 | 4.0 | -0.8 | -7%
Cc1nonc1NC(=O)OC1CCCCC1 | 3 | 14 | 2.1 | -0.7 | -6 | -11 | -1 | 2.0 | 0.0 | 4%
CN(CC(=O)Nc1ccc(OC(F)(F)F)cc1)C(=O)/C=C/c1ccco1 | . | . | 1.2 | . | -3 | -6 | -1 | -0.9 | -0.2 | .
O=c1oc2cc(O)ccc2c2c1CCCC2 | -13 | 18 | . | 9.8 | 5 | . | . | . | 0.6 | -3%
COC(=O)C(C)Oc1cc(C)ccc1COc1ccc(-n2nc(C)n(C(F)F)c2=O)cc1 (stereo unspecified) | -12 | -3 | -3.3 | 5.9 | . | . | . | . | -4.5 | .
COc1ccc(-n2c(CNC(=O)c3cc(OC)c(OC)c(OC)c3)n[nH]c2=S)cc1 | 8 | 1 | . | 0.4 | 3 | . | . | . | 1.4 | -3%
COc1ccc(-c2coc3cc(O)ccc3c2=O)cc1 | 20 | 0 | -4.3 | -2.5 | . | 4 | 5 | -1.1 | -4.2 | .
COc1ccc(OC)c(C2=NOC(C(=O)Nc3c(C)n(C)n(-c4ccccc4)c3=O)C2)c1 (stereo unspecified) | 2 | 0 | -7.6 | 0.4 | -6 | 4 | 5 | -0.7 | 0.0 | .
CCN1C(=O)[C@H]2[C@@H](c3ccc(OC)cc3)N3C(=O)CN(CC4CC4)C(=O)[C@@]3(C)[C@H]2C1=O | -7 | -10 | -0.3 | -4.3 | 1 | . | . | . | 0.2 | .
C/C(CCc1ccccc1)=N/NC(=O)C(=O)NC(C)c1ccccc1 (stereo unspecified) | -5 | -1 | -1.9 | 2.2 | -3 | 18 | 12 | 1.0 | -0.5 | -4%
O=C(Nc1ccc2nsnc2c1)C1CC1 | -4 | 5 | -0.4 | ? | 0 | 7 | 4 | -1.4 | -0.3 | 1%
Cc1ccc2c(c1)c(C1=c3ccccc3=NC1=O)c(O)n2C | 13 | 11 | -0.3 | 1.6 | -3 | 8 | 8 | 2.0 | ? | .
COc1ccc(C2=NS(=O)(=O)N(C)C(C(=O)Nc3cc(C)ccc3O)=C2)cc1OC | 0 | 0 | 9.0 | -0.4 | 0 | -8 | -41 | -3.1 | 0.8 | .
CCOC(=O)C1(CCOc2ccccc2)CCN(Cc2cc(OC)c(O)c(OC)c2)CC1 | -14 | 0 | 0.2 | 4.7 | . | 1 | -1 | -0.6 | 0.8 | .
CCc1c(C)nc2c(OC)cccc2c1SCCC(=O)O | -20 | 4 | -0.8 | 2.1 | -2 | 7 | 1 | -4.1 | 1.4 | 12%
Cn1ncc(Br)c1NC(=O)Nc1ccc(Cl)cc1 | 1 | -11 | . | -1.5 | . | 7 | 1 | -0.2 | -0.7 | 1%
CCN1C(=O)C2C(c3ccccc3F)NC(Cc3ccc(O)cc3)(C(=O)OC)C2C1=O (stereo unspecified) | -17 | -17 | . | 8.6 | -4 | . | . | . | 0.7 | 4%
OC(COc1ccccc1)Cn1c2ccccc2c2ccccc21 (stereo unspecified) | 23 | 5 | . | 4.5 | . | . | . | . | 0.5 | .
CCCCCCC1CC(C)(C(=O)CNc2nncs2)OC1=O (stereo unspecified) | 62* | 9 | 0.9 | -3.0 | -10 | -12 | -30 | -6.0 | 0.1 | 8%
COc1cccc(NC(=O)Cn2nnc(C(=O)Nc3ccccc3)c2N)c1 | 10 | 5 | . | 0.2 | 6 | . | . | . | 0.2 | 9%
CCCCOC(=O)C1Cc2ccccc2C(=O)O1 (stereo unspecified) | -20 | -4 | . | 4.8 | 0 | . | . | . | -0.3 | -5%
O=C(CN1C2=NCCCN2c2ccccc21)c1ccc([N+](=O)[O-])cc1 | 59* | -8 | -0.9 | -0.9 | 59 | -2 | 7 | -3.2 | 2.1 | 10%
CC(=C/C(=O)O)/C=C/c1ccc([N+](=O)[O-])cc1 | . | . | -7.1 | . | -4 | -4 | 4 | -0.9 | -6.2 | 12%
CCSc1nnc(NC(NC(C)=O)(C(F)(F)F)C(F)(F)F)s1 | -9 | -7 | 0.4 | 0.7 | 2 | 25 | 10 | -0.5 | -0.2 | -16%
COc1ccccc1NC(=O)CC(NC1CCCCC1)C(=O)O (stereo unspecified) | -27 | 0 | . | -4.2 | -1 | . | . | . | 0.7 | .
Cc1sc(NC(=O)c2ccco2)c(C(c2cccnc2)N2CCN(C)CC2)c1C (stereo unspecified) | 22 | -15 | . | 2.7 | 0 | . | . | . | 0.9 | 4%
O=C(Nc1cccc(Cl)c1)N(CCN1CCOCC1)Cc1ccccc1F | 12 | -13 | . | -2.6 | . | . | . | . | 1.3 | -1%
COc1ccccc1OC(C)C(=O)N1CCc2ccccc21 (stereo unspecified) | 7 | 24 | 1.1 | 2.3 | . | 3 | -2 | 0.4 | -0.3 | -8%
COc1ccc(NC(=O)CSc2nnc(-c3ccccc3C)n2N)cc1OC | -8 | -6 | . | 5.2 | 4 | . | . | . | -0.6 | 2%
CCOC(=O)c1csc(-c2ccc(OC)c(OC)c2)n1 | -10 | 11 | -5.0 | 1.8 | -5 | 0 | -2 | -1.3 | 0.3 | -7%
CS(=O)(=O)N1CCN(c2ccc(NC(=O)c3ccc(-c4ccc(Cl)cc4)o3)cc2)CC1 | 4 | -2 | . | 1.9 | -3 | . | . | . | 0.0 | 12%&-6%
CCS(=O)(=O)C(C)(CCl)C(=O)Nc1ccc(C(=O)OC)cc1 (stereo unspecified) | -6 | -1 | -2.2 | 1.5 | 2 | 15 | 14 | 1.1 | 1.1 | 7%

A portion of the library. The share of hits here may be higher or lower than overall.
